TbHK1 inh: T. brucei hexokinase 1 inhibition. AID 1430. 220,000 compounds, 0.11% hits. inhibition, % at 10 µM. recombinant TbHK1, G6PDH-coupled NADH A340;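 active means inhibition of 50% or more in the single-dose primary screen; inactive means inhibition below 50%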
TRPML3 agonist: human mucolipin-3 channel agonism. Q8TDD5. HEK293 TRPML3-YFP, Fluo-8 calcium fluorescence; 100% = the carbachol control signal. activation, % at 3 µM. 220,000 compounds, 0.29% hits. AID 1448;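 active means activation above its plate's cutoff, the mean activation of the plate's test wells plus 3 SD, cut at about 12% in these data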;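 further: 0% = DMSO only wells and 100% = carbachol wells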
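Test system – HEK293 line with stable expression of human TRPML3-YFP channel · Control set – carbachol 87 µM final as high control (100%), DMSO as low control (0%) · Signal – Fluo-8 calcium dye fluorescence, ex 470-495, em 515-575 nm · Incubation – 1-h 37 °C dye load, 5-s basal, 120-s post-compound reads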
TRPN1 ag: activates the zebrafish TRPN1 channel; HEK293 zebrafish TRPN1-YFP, Fluo-8 calcium fluorescence; 100% = response to 87 µM carbachol; activation, % at 3 µM; 220,000 compounds, 0.18% hits;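 active means activation above its plate's cutoff, the mean activation of test wells on that plate plus 3 SD, cut at about 19% in these data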;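 further: 0% = DMSO alone and 100% = 87 µM carbachol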
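System: zebrafish TRPN1-YFP in HEK293 cells / Dosing: 3 µM single point / Timing: dye loading 1 h at 37 °C, then 30 min room temperature / Signal: Fluo-8 calcium fluorescence, excitation 470-495 nm, emission 515-575 nm / Read-out basis: percent activation from peak over basal fluorescence ratio, control-normalized / Control set: high carbachol 87 µM, low DMSO alone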
Furin inhibitor: inhibitors of human furin. purified furin, fluorogenic substrate cleavage. inhibition, % at 30 µM. 220,000 compounds, 0.061% hits; in the data active means inhibition above about 25%; further: inactives centre near -15
m-calpain inh: calpain II (pig) inhibition; purified calpain II, fluorogenic peptide substrate, 30 min; inhibition, % at 16 µM; 220,000 compounds, 0.37% hits; AID 1236;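 active means inhibition above about 50%, limit read from the data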
* marks the source's active call; other numbers are inactive results; . = not tested or not shown; & = joins results of further samples. Some of the compounds tested; count on the stated rates, not on these rows.

No.	Molecule	TbHK1 inh	TRPML3 agonist	TRPN1 ag	Furin inhibitor	m-calpain inh
1	COc1ccc(-c2nc(-c3ccccc3)no2)c(OC)c1	1	-0.1	1.0	-5	6
2	CC(C)(C)c1ccc(C(O)CCCN2CCC(C(O)(c3ccccc3)c3ccccc3)CC2)cc1 (configuration not stated)	10	1.1	2.2	-15	21
3	COc1cc2nc(N3CCN(C(=O)C4CCCO4)CC3)nc(N)c2cc1OC (configuration not stated)	-19&-107	-0.7&0.7&-0.2	-0.7&1.0&0.2	-99&-58	-281
4	CN1CCc2cccc3c2[C@H]1Cc1ccc(O)c(O)c1-3	16	1.1	0.5	-13	-35
5	Nc1ccn([C@@H]2CS[C@H](CO)O2)c(=O)n1	.	0.5	0.5	.	-5
6	Nc1ncnc2c1cnn2-c1ccccc1	4	0.4	0.4	-20	.
7	S=c1nc(-c2ccccc2)[nH]c2ccccc12	-11	0.0	0.2	-20	1
8	Nc1nc2c(ncn2COCCO)c(=O)[nH]1	-1	0.5	0.5	-19	6
9	CN1[C@@H]2CC(OC(=O)[C@H](CO)c3ccccc3)C[C@H]1[C@@H]1O[C@@H]12 (some centres not stated)	-5&4	0.9&0.0	0.5&2.2	-16&-13	-12&4
10	COc1ccc2cc([C@H](C)C(=O)O)ccc2c1	5	0.3	-0.4	-14	22
11	O=C(Nc1ccc(-c2nc3ccccc3s2)cc1)C1=COCCO1	-13	0.7	-0.3	-12	-68
12	Cc1ccn2cc(-c3cccc([N+](=O)[O-])c3)nc2c1	3	-0.4	-2.3	-15	10
13	Cc1nc(-c2ccc(C(=O)Nc3ccc(F)cc3)cc2)cs1	5	2.8	9.3	-14	-8
14	CN([C@@H](Cc1ccc(OS(=O)(=O)c2cccc3cnccc23)cc1)C(=O)N1CCN(c2ccccc2)CC1)S(=O)(=O)c1cccc2cnccc12	-2	0.9	-1.1	-14	-88
15	CN1CCc2cccc3c2[C@@H]1Cc1ccc(O)c(O)c1-3	3	0.8	0.8	-18	-18
16	c1ccn2cc(-c3ccc4c(c3)OCCO4)nc2c1	1	0.6	-0.3	-46	-274

An excerpt from above in order of number of heavy atoms, falling.
No.	Molecule	TbHK1 inh	TRPML3 agonist	TRPN1 ag	Furin inhibitor	m-calpain inh
14	CN([C@@H](Cc1ccc(OS(=O)(=O)c2cccc3cnccc23)cc1)C(=O)N1CCN(c2ccccc2)CC1)S(=O)(=O)c1cccc2cnccc12	-2	0.9	-1.1	-14	-88
3	COc1cc2nc(N3CCN(C(=O)C4CCCO4)CC3)nc(N)c2cc1OC (configuration not stated)	-19&-107	-0.7&0.7&-0.2	-0.7&1.0&0.2	-99&-58	-281
11	O=C(Nc1ccc(-c2nc3ccccc3s2)cc1)C1=COCCO1	-13	0.7	-0.3	-12	-68
13	Cc1nc(-c2ccc(C(=O)Nc3ccc(F)cc3)cc2)cs1	5	2.8	9.3	-14	-8
4	CN1CCc2cccc3c2[C@H]1Cc1ccc(O)c(O)c1-3	16	1.1	0.5	-13	-35
12	Cc1ccn2cc(-c3cccc([N+](=O)[O-])c3)nc2c1	3	-0.4	-2.3	-15	10
10	COc1ccc2cc([C@H](C)C(=O)O)ccc2c1	5	0.3	-0.4	-14	22
8	Nc1nc2c(ncn2COCCO)c(=O)[nH]1	-1	0.5	0.5	-19	6
5	Nc1ccn([C@@H]2CS[C@H](CO)O2)c(=O)n1	.	0.5	0.5	.	-5

Single values from the list:
`c1ccn2cc(-c3ccc4c(c3)OCCO4)nc2c1` | TRPML3 agonist: 0.6
`CN1[C@@H]2CC(OC(=O)[C@H](CO)c3ccccc3)C[C@H]1[C@@H]1O[C@@H]12` (some centres not stated) | TbHK1 inh: -5&4

The list continues:
No.	Molecule	TbHK1 inh	TRPML3 agonist	TRPN1 ag	Furin inhibitor	m-calpain inh
17	OCCN(CCO)c1nc(N2CCCCC2)c2nc(N(CCO)CCO)nc(N3CCCCC3)c2n1	-3	6.4	11	-6	-351
18	CCCOc1ccc(-c2cn3ccccc3n2)cc1	-6	-0.5	-1.3	-40	-177
19	CN(C)CCOC(c1ccccc1)c1ccccc1 (tested in a mixture with another compound)	3	0.8	-1.3	-12	19
20	O=C1Nc2ccc3sc4ccccc4c3c2C1=O	-10	-0.5	-1.6	-12	18
21	Cc1ccc(NC(=O)C(=O)Nc2ccccn2)cc1	-2	0.6	3.1	-16	-4
